GLA inh pH 4.5 – blocks human alpha-galactosidase A at pH 4.5; P06280; purified enzyme, 4-MU-alpha-Gal fluorescence, pH 4.5; activity change, negative = inhibition, % at 105 µM; 230,000 tested, under 10 active; inconclusive = small, poorly fitted or top-dose-only inhibition, or a rising curve; inactive = flat fitted curve, though single readings scatter; no compound was filed as active;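 further: 0% = full activity with enzyme and -100% = basal without enzyme; dose as in the result columns while the protocol names 77 µM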
Target sequence (P06280 whole entry, looked up): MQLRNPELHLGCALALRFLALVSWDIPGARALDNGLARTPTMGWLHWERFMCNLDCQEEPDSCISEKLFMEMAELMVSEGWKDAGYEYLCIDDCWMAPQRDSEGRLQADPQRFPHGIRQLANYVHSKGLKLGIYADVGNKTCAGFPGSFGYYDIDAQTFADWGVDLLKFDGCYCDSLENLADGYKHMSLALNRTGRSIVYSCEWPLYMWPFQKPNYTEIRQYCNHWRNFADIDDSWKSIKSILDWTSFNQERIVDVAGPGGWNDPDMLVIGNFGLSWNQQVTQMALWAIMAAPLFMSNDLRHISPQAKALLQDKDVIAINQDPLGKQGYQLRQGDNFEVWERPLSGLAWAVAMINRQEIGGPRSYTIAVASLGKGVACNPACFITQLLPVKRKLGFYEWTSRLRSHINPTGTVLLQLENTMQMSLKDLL
Rango dissoc inh – prevents RanGTP from dissociating the Rango-importin beta complex. O95149+P62826. Biochemical FRET Rango-importin beta, RanGTP-induced dissociation. Potency, µM (doses to about 46.1 µM), inactives show top-dose activity change, negative = inhibition. 340,000 compounds, 0.071% hits. AID 540253; active means falling FRET ratio curve, often poorly fitted, with flat reads before Ran was added; inconclusive means other falling curves, or compound fluorescence or quenching; inactive means flat or rising ratio curve;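 further: potency means the concentration at half of the fitted maximal effect; % of control where 0% means no effect; nearly all actives have a fitted effect of over 45% in size; -100% = wells without RanGTP and RCC1; the record marks most hits as doubtful in a second field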
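Recombinant Rango FRET biosensor (EYFP–snurportin 1 IBB–cerulean CFP10) at 0.1 uM premixed with 0.25 uM importin beta in PBS, 1 mM DTT, 0.02% Tween-20, 0.1% BSA. Compound added 5 min; RanGTP-RCC1 (0.6 uM Ran, 2 mM GTP, 0.2 uM RCC1) then triggers release, read at 45 min.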
Rango-impB inh – prevents formation of the Rango-importin beta complex; Rango CFP/YFP FRET sensor + importin beta, 45 min; Potency, µM (series often up to 92.2 µM), for inactives: top-dose inhibition of complex formation; 340,000 compounds, 0.031% hits; AID 540263; active = rising FRET ratio curve, often small or poorly fitted; inconclusive = mostly compound fluorescence or quenching in the first reads; inactive = flat curves in all reads;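 further: potency means the concentration at half of the fitted maximal effect; 0% = DMSO wells and 100% = buffer wells lacking importin beta; nearly all actives have a fitted effect of over 15% in size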
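FRET biosensor Rango (snurportin 1 IBB between N-terminal EYFP and C-terminal Cerulean), 50 nM in PBS/1 mM DTT/0.02% Tween-20/0.1% BSA, preincubated 5 min RT with compound; 0.125 microM importin beta added, 45 min RT, CFP/YFP FRET ratio read.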
miR-21 FLuc – raises the signal of a miR-21 reporter; HeLa miR-21 FLuc reporter, luciferase, 48 h; Potency, µM (top dose mostly 38.3 µM), inactives show at the highest dose reporter change, positive = more light; 340,000 tested, under 10 active; active = well fitted rising curve with a large enough effect; inconclusive = small, poorly fitted or top-dose-only effect; inactive = no such curve, though single readings can be large or run the other way;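 further: % of control where 0% means no effect; miR-21 action dims this reporter so a rising signal means less miR-21 action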
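HeLa miR-21-FLuc reporter line, endogenous miR-21; 2000 cells/well in DMEM/10% FBS; compound titration up to ~40uM final, 48 h, 37 degree Celsius; luciferase detection reagent, 15 min lysis, CCD luminescence.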
The depositor's hits bear a star; ? = inconclusive; nt = not tested or not shown; & = joins results of further samples.

Start of the data: the first 4 compounds, ahead of the listing:
SMILES	GLA inh pH 4.5	Rango dissoc inh	Rango-impB inh	miR-21 FLuc
COc1ccc(-n2c(O)c(/C=C3\C=Nc4ccc(Br)cc43)c(=O)[nH]c2=O)c(OC)c1	nt	-22%	?	10%
O=C(COC(=O)Cc1ccccc1)Nc1nnc(-c2ccccc2)o1	nt	0%	4.4%	nt
c1cnc2c(c1)ccc1ncccc12	9	-3%	3.3%	6%
CC(=O)Nc1cc(C(=O)N2CCC3(CC2)OCCO3)ccc1S(=O)(=O)c1ccc(C)cc1	11	-7%	4.2%	-2%

Results, from the start:
SMILES	GLA inh pH 4.5	Rango dissoc inh	Rango-impB inh	miR-21 FLuc
COc1ccc(-n2c(O)c(/C=C3\C=Nc4ccc(Br)cc43)c(=O)[nH]c2=O)c(OC)c1	nt	-22%	?	10%
O=C(COC(=O)Cc1ccccc1)Nc1nnc(-c2ccccc2)o1	nt	0%	4.4%	nt
c1cnc2c(c1)ccc1ncccc12	9	-3%	3.3%	6%
CC(=O)Nc1cc(C(=O)N2CCC3(CC2)OCCO3)ccc1S(=O)(=O)c1ccc(C)cc1	11	-7%	4.2%	-2%
CC1(C)OC1COc1c2occc2cc2ccc(=O)oc12 (stereo not drawn)	-2&-2	13%	-1.0%	-6%
Cc1ccccc1NC(=O)COC(=O)c1cc(C)n(C2CC2)c1C	nt	6%	-2.2%	nt
CC1(C)COC(Nc2ccc(Cl)cc2)=N1	-3	-7%	0.2%	-8%
Cc1ccc(/C=C2\C(=O)NC(=S)N(c3ccc(F)cc3)C2=O)s1	-1	0%	?	-21%
COC(=O)C1=C(c2cccc(C#N)c2)C[C@@H]2CC[C@H]1N2C(=O)NCc1cc(C)oc1C(F)(F)F	nt	-5%	-0.1%	nt
COc1ccccc1OCCCn1cc(C(C)=O)c2ccccc21	1	1%	-0.1%	11%
CCOP(=O)(OCC)C(NC(=O)c1ccccc1)=C(Cl)Cl	-12	-9%	0.1%	-3%
COc1ccc(NC(=O)N2CCC3(CC2)OCCO3)cc1	4	0%	0.6%	-23%
Cc1cc(N(CCCl)CCCl)ccc1C=NNC(=O)c1cccnc1	nt	-14%	?	nt
CCCCC(=O)N/N=C/c1c(O)n(-c2ccccc2)c(=O)[nH]c1=O	5	1%	0.7%	2%
O=C1NC(=O)N(c2ccc(Cl)cc2)C(=O)/C1=C\c1ccc(Sc2nc3ccccc3[nH]2)o1	-1	-14%	?	0%
CN(C)C(=O)Oc1ccc(OCc2nc3ccccc3[nH]2)cc1	-3	28%	0.6%	?
COC(=O)[C@@H]1C[C@@]1(C)[C@@H](NP(=O)(c1ccccc1)c1ccccc1)c1ccccc1	-5&5	-3%	-2.6%	3%
COCCCn1c(N)c(C(=O)OCCOC)c2nc3ccccc3nc21	?	?	?	1%
CC(=O)Nc1cc([As](=O)(O)O)ccc1O	-5&5&4	1%	?	-6%&-2%
CN1CCN(c2ccc([N+](=O)[O-])c(Sc3nncn3C)c2)CC1	3	-1%	2.0%	1%
CCN(CC)S(=O)(=O)c1cc(NC(=O)C(C)N2CC=C(c3ccccc3)CC2)ccc1C (stereo not drawn)	-9	8%	-4.9%	23%
CSc1ncc(CN2CCCC(C(=O)c3sccc3C)C2)cn1 (stereo not drawn)	7	0%	1.2%	-3%
Clc1ccccc1CNC1CN2CCC1CC2 (stereo not drawn)	1	-10%	-3.7%	-9%
COc1ccc(-n2c(Cc3ccccc3)nc3ccccc3c2=O)cc1	-19	19%	3.4%	-10%

Shown bar-delimited: part of the list above.
Molecule | GLA inh pH 4.5 | Rango dissoc inh | Rango-impB inh | miR-21 FLuc
O=C(COC(=O)Cc1ccccc1)Nc1nnc(-c2ccccc2)o1 | nt | 0% | 4.4% | nt
c1cnc2c(c1)ccc1ncccc12 | 9 | -3% | 3.3% | 6%
CC(=O)Nc1cc(C(=O)N2CCC3(CC2)OCCO3)ccc1S(=O)(=O)c1ccc(C)cc1 | 11 | -7% | 4.2% | -2%
CC1(C)OC1COc1c2occc2cc2ccc(=O)oc12 (stereo not drawn) | -2&-2 | 13% | -1.0% | -6%
Cc1ccccc1NC(=O)COC(=O)c1cc(C)n(C2CC2)c1C | nt | 6% | -2.2% | nt
CC1(C)COC(Nc2ccc(Cl)cc2)=N1 | -3 | -7% | 0.2% | -8%
Cc1ccc(/C=C2\C(=O)NC(=S)N(c3ccc(F)cc3)C2=O)s1 | -1 | 0% | ? | -21%
COC(=O)C1=C(c2cccc(C#N)c2)C[C@@H]2CC[C@H]1N2C(=O)NCc1cc(C)oc1C(F)(F)F | nt | -5% | -0.1% | nt
COc1ccccc1OCCCn1cc(C(C)=O)c2ccccc21 | 1 | 1% | -0.1% | 11%
CCOP(=O)(OCC)C(NC(=O)c1ccccc1)=C(Cl)Cl | -12 | -9% | 0.1% | -3%
COc1ccc(NC(=O)N2CCC3(CC2)OCCO3)cc1 | 4 | 0% | 0.6% | -23%
Cc1cc(N(CCCl)CCCl)ccc1C=NNC(=O)c1cccnc1 | nt | -14% | ? | nt
CCCCC(=O)N/N=C/c1c(O)n(-c2ccccc2)c(=O)[nH]c1=O | 5 | 1% | 0.7% | 2%
O=C1NC(=O)N(c2ccc(Cl)cc2)C(=O)/C1=C\c1ccc(Sc2nc3ccccc3[nH]2)o1 | -1 | -14% | ? | 0%
CN(C)C(=O)Oc1ccc(OCc2nc3ccccc3[nH]2)cc1 | -3 | 28% | 0.6% | ?
COC(=O)[C@@H]1C[C@@]1(C)[C@@H](NP(=O)(c1ccccc1)c1ccccc1)c1ccccc1 | -5&5 | -3% | -2.6% | 3%
COCCCn1c(N)c(C(=O)OCCOC)c2nc3ccccc3nc21 | ? | ? | ? | 1%
CC(=O)Nc1cc([As](=O)(O)O)ccc1O | -5&5&4 | 1% | ? | -6%&-2%
CN1CCN(c2ccc([N+](=O)[O-])c(Sc3nncn3C)c2)CC1 | 3 | -1% | 2.0% | 1%
CCN(CC)S(=O)(=O)c1cc(NC(=O)C(C)N2CC=C(c3ccccc3)CC2)ccc1C (stereo not drawn) | -9 | 8% | -4.9% | 23%

Further entries
SMILES	GLA inh pH 4.5	Rango dissoc inh	Rango-impB inh	miR-21 FLuc
Cc1cccc(CN2CCN(CC(=O)N3CCC4(CC3)OCCO4)C2=O)c1	3	-17%	-0.6%	-2%
O=C(O)c1cc2ccccc2oc1=O	8	0%	-1.8%	-25%
Cc1nc2cc([N+](=O)[O-])ccc2c(=O)n1-c1ccccc1[N+](=O)[O-]	2	0%	0.1%	11%
CCCCCCn1c(O)c(C=Nc2ccccc2N2CCOCC2)c(=O)[nH]c1=S	7	0%	1.2%	-3%
CC(C)N1CCN(Cc2ccccc2C(F)(F)F)CC1CCO (stereo not drawn)	6	11%	-0.3%	-1%
CCOc1cc2c(cc1OCC)-n1cccc1C(c1ccc(OC(F)F)cc1)NC2 (stereo not drawn)	nt	-7%	-1.9%	12%
CC(Cc1ccccc1)N(C)CC1C(=O)C2CCC1C2 (stereo not drawn)	nt	-16%	-0.8%	nt
COc1ccc(N=Cc2c(O)n(C)c(=O)[nH]c2=O)cc1	nt	-3%	?	0%
C[N+](C)(C)CCOC(=O)CBr	0	-9%	9.1%	nt
Nc1ccnn1C1CCNCC1	0	1%	-1.2%	-1%
CCOC(=O)c1nsnc1NCCCl	9	1%	-0.1%	-2%
COc1cc(OC)c(OC)cc1C=O	-8	-7%	-1.5%	nt
O=C(CCc1nnc2ccc(NCc3ccccc3Cl)nn12)N1CCC2(CC1)OCCO2	nt	-5%	-1.7%	-13%
NC1CCc2cc(O)c(O)cc2C1 (stereo not drawn)	-1	-16%	-1.9%	nt
CCS(=O)(=O)NCc1nnc2n1-c1ccc(Br)cc1C(c1ccccc1Cl)=NC2	nt	3%	1.9%	nt
O=C(NC1CN2CCC1CC2)c1ccc(-c2ccc([N+](=O)[O-])cc2)o1 (stereo not drawn)	2	-9%	1.8%	-8%
O=[N+]([O-])c1ccc(C2[C@H]3C(c4ccccc4)=NC4(CCCCC4)N23)cc1 (stereo partly drawn)	2	-20%	1.2%	-1%
CCCCCCC(=O)N/N=C/c1c(O)n(C(C)CC)c(=S)[nH]c1=O (stereo not drawn)	-9	-18%	?	24%
Clc1ccc2c(c1)C(c1ccccc1Cl)=NCc1nnc(N3CCN(CCOc4ccccc4)CC3)n1-2	-7	-11%	-1.5%	-3%
O=c1[nH]c(=S)n(-c2ccccc2)c(O)c1/C=N/N1CCOCC1	4	?	?	1%
O=c1c2ccccc2nc(Cc2ccccc2)n1-c1cccc(O)c1	5	5%	-0.6%	-22%
CCCCn1c(N)c(C(=O)NCc2cccs2)c2nc3ccccc3nc21	5	?	?	19%
CC(C)CCNC(=O)c1cc(C(=O)c2cc(Br)ccc2O)cn(CCC(C)C)c1=O	-11	-19%	-4.4%	0%
COc1ccc(C(=O)C2CCCN(Cc3ccc(F)cc3F)C2)cc1F (stereo not drawn)	nt	-3%	-3.6%	4%
COCCCN=Cc1c(O)[nH]c(=S)[nH]c1=O	-2	-15%	-1.3%	-1%
O=c1[nH]c(=O)n(CCc2ccccc2)c(O)c1C=NC1CC1	-1	1%	0.5%	2%
COc1ccc(NS(=O)(=O)c2ccc(OCC(=O)N3CCN(C)CC3)cc2)cc1Cl	nt	6%	4.0%	7%
CC(=O)N(C)CC#CCN1CCCC(CO)C1 (stereo not drawn)	nt	-2%	3.2%	nt
O=C1NC(=O)C(CCc2ccncc2)(CCc2ccccn2)C(=O)N1c1ccc(Br)cc1 (stereo not drawn)	-21	-1%	-0.5%	4%
O=[N+]([O-])c1ccc(N2CCCC2)cc1N/N=C1\CN2CCC1CC2	-6	14%	-5.4%	-17%
C=CCc1cc(C=C2C(=O)N(C)C(=O)N(C)C2=O)cc(OCC)c1OCc1ccccc1	-1	2%	-0.7%	-14%
Cc1ccc(-n2c(C)nc3ccccc3c2=O)c(C)c1	-5	11%	-0.6%	-2%
O=c1c2ccccc2nc(Cc2ccccc2)n1-c1ccccc1	nt	6%	0.2%	-63%
CN1C(C(=O)N2CCC3(CC2)OCCO3)=CC(c2ccc(F)cc2)=NS1(=O)=O	nt	21%	-0.4%	-2%
CC(=O)C1CCC2C3CCC4CC(O)CCC4(C)C3C(O)CC12C (stereo not drawn)	nt	3%	-0.2%	nt
CN(C)c1ccc(C2C3C=CC(C3)C2(C#N)C(=O)O)c(Br)c1 (stereo not drawn)	nt	-1%	0.9%	-11%
COC(=O)C1=C(c2c(C)noc2C)C[C@@H]2CC[C@H]1N2C(=O)NCc1ccc2c(c1)OCO2	nt	-4%	-0.4%	nt
C=CCn1c(O)c(C(C)=NCCCN(C)C)c(=O)[nH]c1=O	-4	16%	2.0%	9%
C/C(=N/O)c1ccc2ccc3ccccc3c2c1	nt	-22%	0.7%	nt
O=C1CC(=O)N(c2ccccc2)C(=O)N1	nt	2%	-3.9%	nt
O=C(COc1ccc(Br)cc1)N1CCN(Cc2ccncc2)CC1	-3	2%	4.4%	-1%
COc1ccccc1NC(=O)COC(=O)c1cc(C)n(C2CC2)c1C	nt	-3%	3.3%	nt
CCN(CC)c1ccc([N+](=O)[O-])c2cccnc12	-2	-5%	1.2%	-17%
CN(C)Cc1c[nH]c2cc([N+](=O)[O-])ccc12	nt	-6%	-0.4%	nt
COC(=O)C1=C(c2cccc(OCc3ccccc3)c2)C[C@@H]2CC[C@H]1N2C(=O)NC1CCN(Cc2ccccc2)CC1	nt	0%	0.4%	nt
Cc1ccc(OP(=O)(NC(C)c2ccccc2)Oc2ccc(C)cc2)cc1 (stereo not drawn)	-10	-16%	2.2%	0%
O=C(Cn1cnc2ccccc2c1=O)NCC(=O)N1CCC2(CC1)OCCO2	-7	-8%	2.0%	2%
CN(C)C(=O)Oc1ccc2c(c1)O/C(=C\c1cccc(Cl)c1)C2=O	nt	1%	-5.8%	-12%

Screening results deposited in PubChem BioAssay by National Center for Advancing Translational Sciences (NCATS).

This is a subset; the hit share may differ from the screen's.
